Screening results from PubChem.
VDR inhibitor: inhibitors of human vitamin D receptor | Potency, µM, inactives show max response, negative = inhibition, usual class: inhibitors | AID 504847 | 400,000 tested, 0.93% active | VDR-SRC2-3 peptide fluorescence polarization, 2 h; active means well fitted inhibition curve with a large enough effect; inconclusive means small, poorly fitted or top-dose-only effect, or another doubt; inactive means no such curve, though single readings can be large or run the other way; further: series mostly up to about 120 µM
Target sequence (P11473 whole entry, looked up): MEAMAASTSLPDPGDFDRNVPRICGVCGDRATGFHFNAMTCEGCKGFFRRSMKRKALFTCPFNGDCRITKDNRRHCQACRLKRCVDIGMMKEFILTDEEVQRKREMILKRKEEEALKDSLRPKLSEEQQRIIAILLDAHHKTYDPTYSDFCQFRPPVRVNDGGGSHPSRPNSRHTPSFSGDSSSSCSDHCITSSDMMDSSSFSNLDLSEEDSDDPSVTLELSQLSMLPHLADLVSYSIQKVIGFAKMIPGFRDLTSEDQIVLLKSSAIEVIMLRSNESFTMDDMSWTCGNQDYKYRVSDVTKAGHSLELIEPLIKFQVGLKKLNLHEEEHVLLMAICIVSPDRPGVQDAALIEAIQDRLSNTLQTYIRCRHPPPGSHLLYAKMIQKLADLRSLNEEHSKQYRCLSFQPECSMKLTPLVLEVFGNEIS
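Fluorescence polarization assay of small-molecule disruption of VDR binding to coregulator peptide SRC2-3. Compounds and controls pin-transferred, then read after 2 h incubation at ambient room temperature.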
* = called active by the depositor; ? = inconclusive; & = joins results of further samples. On the % scale 0 is the no-effect control and ±100 the full control effect; potency means the concentration at half of the fitted maximal effect.

SMILES	VDR inhibitor
CC(C(=O)NCc1ccc(F)cc1)c1ccc([N+](=O)[O-])cc1 (stereo not drawn)	-11%
CC(=O)c1cccc(NC(=O)c2ccccc2OCc2ccc(F)cc2)c1	2%
COc1ccc(NC(=S)NC(C)c2ccncc2)cc1OC (stereo not drawn)	5%
O=C(Oc1ccccc1)N1CCC2(CC1)CN(c1ccncc1)C2	-11%
CCCCNC(=O)c1cc(S(=O)(=O)N2CCCCC2)oc1C	16%
Cc1noc(C)c1COC(=O)/C=C/c1ccc(Cl)cc1	?
O=C(NC1(C(F)(F)F)NC(=O)N(CCc2ccccc2)C1=O)c1ccccc1F (stereo not drawn)	9%
Cc1c(-c2nc(-c3ccccc3)no2)nnn1-c1cccc(C(F)(F)F)c1	17%
COc1ccc(CC(=O)Nc2ccc(-c3nnc(-c4ccccc4)o3)cc2)cc1	9%
COc1cnc(-c2ccccn2)nc1Oc1ccc(C(C)(C)C)cc1	6%
CC(C)c1ccc(C2/C(=C(/O)c3ccccc3)C(=O)C(=O)N2CCCN2CCOCC2)cc1 (stereo not drawn)	-5%
O=c1c2ccccc2c(-c2ccc(Br)cc2)nn1Cc1ccccc1	-2%
O=C(CN1CCN(c2ncccn2)CC1)NCCC1=CCCCC1	9%
O=c1c2cnn(-c3ccc(Cl)cc3)c2ncn1Cc1cccc(C(F)(F)F)c1	18%
CCOCCCNC(=O)CSCc1nc(-c2ccc(SC)cc2)oc1C	-5%
Cc1ccc(-c2noc(CSc3nnc(-c4ccncc4)n3-c3ccc(C)cc3)n2)cc1	7%
CC(=O)OCC(NC(=O)C(CCCCNC(=O)OCc1ccccc1)NC(=O)OC(C)(C)C)C1OC(n2cc(F)c(=O)[nH]c2=O)C(OC(C)=O)C1OC(C)=O (stereo not drawn)	-19%
COc1cc(Br)cc(/C=N/NC(=O)Cc2ccc(C(F)(F)F)cc2[N+](=O)[O-])c1O	?
CNC(=O)CSc1n[nH]c(-c2cc(Cl)ccc2OC)n1	-1%
COc1ccc(-c2cc(CNC(=O)CCl)on2)cc1	8%

17 consecutive compounds from above:
SMILES	VDR inhibitor
CC(C(=O)NCc1ccc(F)cc1)c1ccc([N+](=O)[O-])cc1 (stereo not drawn)	-11%
CC(=O)c1cccc(NC(=O)c2ccccc2OCc2ccc(F)cc2)c1	2%
COc1ccc(NC(=S)NC(C)c2ccncc2)cc1OC (stereo not drawn)	5%
O=C(Oc1ccccc1)N1CCC2(CC1)CN(c1ccncc1)C2	-11%
CCCCNC(=O)c1cc(S(=O)(=O)N2CCCCC2)oc1C	16%
Cc1noc(C)c1COC(=O)/C=C/c1ccc(Cl)cc1	?
O=C(NC1(C(F)(F)F)NC(=O)N(CCc2ccccc2)C1=O)c1ccccc1F (stereo not drawn)	9%
Cc1c(-c2nc(-c3ccccc3)no2)nnn1-c1cccc(C(F)(F)F)c1	17%
COc1ccc(CC(=O)Nc2ccc(-c3nnc(-c4ccccc4)o3)cc2)cc1	9%
COc1cnc(-c2ccccn2)nc1Oc1ccc(C(C)(C)C)cc1	6%
CC(C)c1ccc(C2/C(=C(/O)c3ccccc3)C(=O)C(=O)N2CCCN2CCOCC2)cc1 (stereo not drawn)	-5%
O=c1c2ccccc2c(-c2ccc(Br)cc2)nn1Cc1ccccc1	-2%
O=C(CN1CCN(c2ncccn2)CC1)NCCC1=CCCCC1	9%
O=c1c2cnn(-c3ccc(Cl)cc3)c2ncn1Cc1cccc(C(F)(F)F)c1	18%
CCOCCCNC(=O)CSCc1nc(-c2ccc(SC)cc2)oc1C	-5%
Cc1ccc(-c2noc(CSc3nnc(-c4ccncc4)n3-c3ccc(C)cc3)n2)cc1	7%
CC(=O)OCC(NC(=O)C(CCCCNC(=O)OCc1ccccc1)NC(=O)OC(C)(C)C)C1OC(n2cc(F)c(=O)[nH]c2=O)C(OC(C)=O)C1OC(C)=O (stereo not drawn)	-19%

Later entries.
SMILES	VDR inhibitor
COc1ccc(Cl)cc1NC(=O)CN(C)CC(=O)N(CC(C)C)c1c(N)n(CC(C)C)c(=O)[nH]c1=O	-8%
CCCOc1ccc(N2C(=O)C3ON(c4ccccc4)C(c4ccc(O)c(OC)c4)C3C2=O)cc1 (stereo not drawn)	-1%
COC(=O)c1ccc(C(=O)Nc2nc3cc(N)c(C)cc3s2)cc1	3%
Cc1ccc(C)c(N2CCN(C(=O)CN3C(=O)COc4ccc(S(=O)(=O)N5CCCCCC5)cc43)CC2)c1	-4%
Cc1sc(NC(=O)/C=C/C(=O)O)c(C(N)=O)c1-c1ccc(C(C)(C)C)cc1	79µM*
CC1(C)CC(=O)C=C(NNC(=O)c2ccc(N)cc2)C1	-12%
CN(C(=O)C1CCCN1S(=O)(=O)c1ccc(Cl)cc1)c1ccccc1 (stereo not drawn)	-28%
O=C(Nc1cc([N+](=O)[O-])ccc1F)c1ccc2ccccc2c1	12%
CC1CCCC(NC(=O)COC(=O)[C@@H](NC(=O)c2ccc(F)cc2)C(C)C)C1C (stereo partly drawn)	5%
Cc1ccnc(NC(=O)CCC(=O)N(CC(=O)NCc2ccc(F)cc2)c2ccc(F)cc2)c1	-15%
CCOC(=O)Cc1csc(NC(NC(=O)OCC)(C(=O)OCC)C(F)(F)F)n1 (stereo not drawn)	-4%
O=C(Cc1ccccc1)Nc1c(Cl)ccc2nsnc12	-1%
COc1cccc(C2=CC(c3ccccc3F)n3ncc(C(=O)Nc4ccc(F)cc4)c3N2)c1 (stereo not drawn)	3%
Cc1ccc(N2CC(NC(=O)c3cccc(Cl)c3)CC2=O)cc1C (stereo not drawn)	18%
Cc1cc(NC(=O)CCC(=O)N(Cc2ccco2)C2(C(=O)NC3CCCC3)CCCCC2)no1	-10%
O=C(COC(=O)c1cccc(-n2cnnn2)c1)Nc1c(Cl)cccc1C(F)(F)F	-1%
COc1cc(NC(=O)C2=CC(c3cccs3)=NS(=O)(=O)N2C)cc(OC)c1OC	2%
Nc1nn(-c2cccc(F)n2)cc1-c1ccc(Cl)cc1	-47%
Cc1cc(OCC(=O)OCC(=O)c2c(N)n(C)c(=O)n(C)c2=O)ccc1Cl	?
COc1ccccc1CNC(=O)c1cc2cccc3c2n1CC(C)S3 (stereo not drawn)	22%
CC(C)[C@H](CN1CCC[C@H]1CN1C(N)=NC[C@H]1C(C)C)N1C[C@@H](Cc2ccccc2)N(CCCC2CCCC2)C1=N	-6%
O=C(NCCCN1CCCC1=O)c1cccs1	-19%
Cc1c(Cl)ccc2sc(NC(=O)CN3C(=O)c4ccccc4C3=O)nc12	-9%
O=C(COC(=O)c1cc(=O)[nH]c2ccc(Br)cc12)c1ccccc1	13%
COc1ccc(NC(=O)Cn2nnc(C(=O)NCc3ccccc3Cl)c2N)cc1Cl	14%
C=CCOC(=O)C1=C(C)NC(C)=C(C(=O)OCC=C)C1c1cn(-c2ccccc2)nc1-c1ccco1	0%
Cc1csc2nc(O)c(C(=O)NCCCc3ccccc3)c(=O)n12	-8%
CCOC(=O)c1cc(C(=O)Nc2ccccc2F)nn1C	6%
CC(C(=O)N1CCCc2ccccc21)N1C(=O)c2ccccc2C1=O (stereo not drawn)	-10%
CCCCCCCC/C=C\CCCCCCCC(=O)OCC(CO)OC(=O)CCCCCCC/C=C\CCCCCCCC (stereo not drawn)	-1%&-1%
O=[N+]([O-])c1ccc(N2CCN(CCO)CC2)cc1Sc1ccccn1	-10%
COC(=O)c1ccc(OC(=O)c2ccc(OC)cc2)c(OC)c1	9%
COC(=O)C1=C(C)OC(N)=C(C#N)C1c1ccc(OC)c(CSc2ccccn2)c1 (stereo not drawn)	1%
O=C(NCCOc1cccnc1)C1CCC(=O)N(Cc2ccccc2F)C1 (stereo not drawn)	-2%
Nc1cc(=O)[nH]n1C1CCN(c2ccccc2)CC1	8%
COc1ccc(/C=N/Nc2nc(-c3ccc(C)cc3)c(C#N)c(=O)[nH]2)cc1	-15%
CC1CCN(C(=O)CCNS(=O)(=O)c2ccc3c(c2)oc(=O)n3C)CC1	12%
CCN(c1ccccc1)S(=O)(=O)c1ccc(C(=O)N2CCOCC2)cc1	-1%
COc1ccccc1NC(=O)c1ccc2nc(N3C(=O)CCC3=O)sc2c1	7%
COc1ccc(CCN(C)C(=O)c2cc(S(=O)(=O)NCc3ccccc3)ccc2C)cc1OC	13%
COCCCNC(=O)CSC1=Nc2ccccc2C2=NC(CCC(=O)NCc3ccc(OC)cc3)C(=O)N12 (stereo not drawn)	8%
CNC(=O)C(=O)N/N=C/c1ccccn1	5%
Cc1ccc(/C=C/C(=O)NC(C)c2ccccc2)cc1 (stereo not drawn)	-12%
COc1cc2nc(C3CC3)n(NC(=O)c3ccc(F)cc3)c(=O)c2cc1OC	-8%
Cc1nc2ccc(NC(=O)c3ccc(S(=O)(=O)N(C)C)cc3)cc2s1	-10%
CCOc1ccc(C(=O)NCCCn2ccnc2)cc1	-1%
CC(=O)OC(C(=O)NCCc1ccccc1)c1cccnc1 (stereo not drawn)	-6%
O=C(Cn1nc(-c2ccccc2Cl)ccc1=O)Nc1ccccc1-c1ccccc1	9%
NC(=O)C1CCN(C(=O)c2ccc(-c3ccccc3Cl)o2)CC1	-8%
COc1ccc(CC(=O)NCCc2sc(-c3cccc(F)c3)nc2C)cc1	-5%

Continued.
SMILES	VDR inhibitor
CC(=O)Oc1cccc(N2C(=O)CC(Nc3ccc(N4CCOCC4)cc3)C2=O)c1 (stereo not drawn)	0%
CCc1csc(CCNC(=O)C2CCC(=O)N(Cc3cccc(C(F)(F)F)c3)C2)n1 (stereo not drawn)	1%
Cc1ccc(C(=O)Nc2ccc(NC(=O)c3cccs3)cc2)cc1C	11%
CC(=O)c1nccs1	-15%
COc1ccc(C(=O)OCC(=O)N2CCCCC2)cc1[N+](=O)[O-]	-1%
COC(=O)C(C)N1C(=O)S/C(=C/c2cc(C)n(C(C)C)c2C)C1=O (stereo not drawn)	-1%
O=C(CSc1nc2c([nH]c3ccccc32)c(=O)n1-c1ccccc1)N1CCc2ccccc21	4%
O=C1CC(c2nc3ccccc3[nH]2)CN1c1ccccc1 (stereo not drawn)	16%
COC(=O)c1[nH]c(C)c(/C(O)=C2\C(=O)C(=O)N(CCN(C)C)C2c2ccccc2OC)c1C (stereo not drawn)	26%
O=C(c1cc2cc(Br)ccc2o1)N1CCOCC1	-7%
CCCCn1cc(C(C)(C)C)c(C#N)c1NC(C)=O	-21%
CC1CCc2c(sc(NC(=O)CSc3nnc(-c4ccccc4)o3)c2C#N)C1 (stereo not drawn)	-11%
C/C(=N/N=C(/N)SCc1ccccc1)C(C)(C)C	7%
CCOc1ccccc1C(C(=O)NCCOC)N(CCOC)C(=O)Cn1nnc2ccccc21 (stereo not drawn)	-1%
COc1ccc(Cl)cc1C(=O)NCCN1CCOCC1	-3%
COC(=O)Cn1cnc2c(Cl)nc(F)nc21	-3%
COc1ccc(CNc2nc(C)cc(C)c2C#N)cc1	-6%
Cc1ccc(NS(=O)(=O)c2ccc3[nH]c(=O)[nH]c3c2)cc1	14%
COc1ccc(OCC(O)CN(C)C(=O)/C=C/c2cccc([N+](=O)[O-])c2)cc1 (stereo not drawn)	7%
Cc1cc(=O)n(C)c2ccccc12	14%
Nc1nc(SCCN2C(=O)c3ccccc3C2=O)n[nH]1	10%
Fc1ccc(C(c2nnnn2C2CCCC2)N2CCN(Cc3ccccc3)CC2)cc1 (stereo not drawn)	-20%
CC(=O)c1ccccc1OC(=O)c1ccc([N+](=O)[O-])o1	-25%
CCNC(=O)O/N=C(\C)c1sc(-c2ccccc2)nc1C	-4%
O=C1CC(c2ccccc2)CC(=O)N1c1ccccc1	-27%
COC(=O)c1ccccc1NC(=O)C1CCCC1	5%
O=C(OC1Cc2c(O)cc(O)cc2OC1c1cc(O)c(O)c(O)c1-c1c(C2Oc3cc(O)cc(O)c3CC2OC(=O)c2cc(O)c(O)c(O)c2)cc(O)c(O)c1O)c1cc(O)c(O)c(O)c1 (stereo not drawn)	?
Cc1ccc(-c2cn(-c3ccc(SC(F)F)cc3)c3[n+]2CCC3)cc1	-10%
CCCC[C@H]1COCCS(=O)(=O)N1Cc1ccc(C)cc1	9%
CC1=NN(c2ccccc2)C(=O)/C1=C/c1ccc[nH]1	6%
CCc1nnc(NS(=O)(=O)c2ccc(NC(=O)c3ccccc3C)cc2)s1	11%
COc1ccccc1N(CC(O)CN1CCC(C)CC1)S(=O)(=O)c1ccccc1 (stereo not drawn)	2%
Cc1ccccc1CSc1ccc2nnc(-c3ccccn3)n2n1	-21%
COc1ccc(CCNc2ccc(C(CC(N)=O)NC(=O)c3cc(OC)ccc3OC)cc2[N+](=O)[O-])cc1 (stereo not drawn)	16%
O=C(CCNS(=O)(=O)c1ccc(Br)cc1)NC1CCC(O)CC1 (stereo not drawn)	5%
Oc1ccc(N=Cc2ccc(-c3cccs3)s2)cc1	79µM*
O=C(CCC(=O)Nc1cccc2ccccc12)N/N=C/c1ccco1	-2%
O=C(Nc1cc(C(=O)N2CCCC2)ccc1N1CCCC1)c1ccccc1F	-3%
CCCCN(CC)C(=O)Cn1c(=O)n(-c2ccc(OCC)cc2)c(=O)c2c3c(sc21)CCCC3	-6%
COc1ccc(Cl)cc1NC(=O)N1CCN(CCc2ccccc2)CC1	-1%
OCC1OC(n2cnc3c(Cl)ncnc32)C(O)C1O (stereo not drawn)	8%
COC(=O)c1ccc(NCc2cc(O)ccc2O)cc1O	-16%
O=S1(=O)N=C(c2ccccc2)c2ccccc21	-4%
O=C(CCC(=O)c1cccs1)NCc1ccccc1Cl	-14%
Cc1ccc(C(=O)Nc2nc(-c3ccccn3)cs2)cc1S(=O)(=O)N1CCOCC1	79µM*
OCC1(CCc2ccccc2)CCN(Cc2ccccc2Cl)CC1	-6%
CCCCC1(c2ccc(F)cc2)NC(=O)N(CC(=O)N2CCN(C(=O)c3ccco3)CC2)C1=O (stereo not drawn)	9%
O=[N+]([O-])c1ccc2n[nH]nc2c1	0%
C=CCOc1ccc2c(=O)n(C)c3ccccc3c2c1	-20%
O=[N+]([O-])c1cccc(/C=C/c2nc[nH]c2[N+](=O)[O-])c1	2%
CSc1ccc(CN(C)CC(=O)Nc2ccc(NC(C)=O)cc2)cc1	-4%
O=C(CN1CCN(C(=O)c2ccco2)CC1)N1CCc2[nH]c3ccccc3c2C1	-7%

Not all compounds are listed (hit frequency here may not be typical).
